From PubChem
2A StopGo – High Throughput Screening for Foot and Mouth Disease Virus Antivirals; AID 1159524, 2015; Potency, µM (titrated, usually from 57.9 µM), without a hit: top-dose signal change, negative = less light; 410,000 compounds, 1.2% hits; human cells with a luciferase reporter of 2A StopGo recoding; control for the full effect not named in the record; active = well fitted falling curve with a large enough effect; inconclusive = small, poorly fitted or top-dose-only effect; inactive = no such curve, though single readings can be large or run the other way; tested in HEK293T cells; note: % is set by controls: 0 for no effect and ±100 for the full control effect; nearly all actives have a fitted effect of over 45% in size; luciferase light after 4 h
MARV entry inh – qHTS for inhibitors of binding or entry into cells for Marburg Virus. Marburg virus pseudotyped entry inhibition, cell reporter; control for the full effect not named in the record; about a third of the inactives were read at about 46 µM. Potency, µM (series often up to 37.8 µM), without a hit: at the highest dose activity change, negative = inhibition, hits mostly inhibitors. 300,000 compounds, 1.8% hits; active = well fitted inhibition curve with a large enough effect; inconclusive = small, poorly fitted or top-dose-only effect, or effect the other way; inactive = flat fitted curve, though single readings scatter; tested in HEK293 cells; about a fifth of its hits are not listed in these tables; note: % is set by controls: 0 for no effect and ±100 for the full control effect; luciferase read-out
Cruzain noTriton – qHTS Assay for Promiscuous and Specific Inhibitors of Cruzain (without detergent) | purified cruzain, Z-FR-AMC fluorescence, no detergent | 200,000 compounds, 2.3% hits | Potency, µM, for inactives: max response, negative = inhibition, actives largely listed as inhibitors; active = well fitted curve in the direction sought with a large enough effect; inconclusive = small, poorly fitted or top-dose-only effect, or another doubt; inactive = no such curve, though single readings can be large; an effect the other way counts as inactive or inconclusive;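 note: plate controls were enzyme without inhibitor for no effect and buffer without enzyme for full effect; nearly all actives have a fitted effect of over 40% in size; top concentration of the series not given in the record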
Target sequence (P25779 123-467 limits assumed): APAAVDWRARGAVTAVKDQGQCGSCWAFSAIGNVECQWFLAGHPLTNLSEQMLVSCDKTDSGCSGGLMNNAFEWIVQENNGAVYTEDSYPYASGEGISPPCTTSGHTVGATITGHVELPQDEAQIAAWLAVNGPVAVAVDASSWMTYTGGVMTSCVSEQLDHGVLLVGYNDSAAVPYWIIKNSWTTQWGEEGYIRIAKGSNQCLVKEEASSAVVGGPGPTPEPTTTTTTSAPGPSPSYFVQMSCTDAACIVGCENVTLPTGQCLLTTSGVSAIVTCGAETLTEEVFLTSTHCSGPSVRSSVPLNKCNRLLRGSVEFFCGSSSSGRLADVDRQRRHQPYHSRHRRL
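Purified cruzain at 1.5 nM, pre-incubated 15 min with compound at room temperature in 100 mM sodium acetate pH 5.5, 5 mM DTT, 0.00005% Triton X-100. Reaction started with 2 uM Z-FR-AMC; AMC fluorescence increase over 60 s gives rate.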
LASV entry inh – qHTS for Inhibitors of binding or entry into cells for Lassa Virus; Lassa virus pseudotype entry inhibition, cell reporter; control for the full effect not named in the record; Potency, µM (top dose mostly 37.9 µM), for inactives: at the highest dose activity change, negative = inhibition, hits mostly inhibitors; 300,000 compounds, 1.2% hits; AID 540256, 2011; active means well fitted inhibition curve with a large enough effect; inconclusive means small, poorly fitted or top-dose-only effect, or effect the other way; inactive means flat fitted curve, though single readings scatter; tested in HEK293 cells; note: % is set by controls: 0 for no effect and ±100 for the full control effect; nearly all actives have a fitted effect of over 50% in size; luciferase read-out
NS1 inh – qHTS Assay for Inhibitors of Influenza NS1 Protein Function | S. cerevisiae slowed by influenza A NS1, growth recovery by OD600 | Potency, µM (titrated, usually from 46.1 µM), inactives show at the top dose activity, positive = more growth | 270,000 compounds, 0.4% hits | AID 2326, 2010; note: actives are rising curves; nearly all actives have a fitted effect of over 50% in size
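Growth recovery, yeast-based: influenza A NS1 expressed in S. cerevisiae causes slow growth, and suppressors are detected by OD600. The parent strain without NS1 is used as positive control.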
SARS PLpro yeast – qHTS of Yeast-based Assay for SARS-CoV PLP; 330,000 compounds, 0.19% hits; S. cerevisiae expressing SARS-CoV PLpro, growth rescue; control for the full effect not named in the record; Potency, µM (top dose mostly 32.9 µM), without a hit: at the highest dose activity, positive = growth rescue; AID 485353, 2010; note: 0% is about no effect; nearly all actives have a fitted effect of over 55% in size; growth read by luminescence after 48 h
Cruzain inh Det – qHTS Assay for Promiscuous and Specific Inhibitors of Cruzain (with detergent); Cruzipain (Trypanosoma cruzi), P25779; AID 1478, 2009; purified cruzain, Z-FR-AMC fluorescence, 0.01% Triton; Potency, µM, for the others: max response, negative = inhibition, most hits filed as inhibitors; 200,000 compounds, 0.43% hits; active = well fitted curve in the direction sought with a large enough effect; inconclusive = small, poorly fitted or top-dose-only effect, or another doubt; inactive = no such curve, though single readings can be large; an effect the other way counts as inactive or inconclusive;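 note: plate controls were neutral wells for no effect and buffer without enzyme for full effect; nearly all actives have a fitted effect of over 40% in size; top concentration of the series not given in the record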
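Enzyme 1.5 nM, Z-FR-AMC 2 uM, NaOAc 100 mM pH 5.5, DTT 5 mM, Triton X-100 0.01%; 15 min RT compound preincubation; kinetic ex360/em450, 60 s delta.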
RE007 growth inh – qHTS Assay for Inhibitors of the HIV-1 protein Vpr; S. pombe RE007 Vpr strain, BacTiter-Glo ATP luminescence, 24 h; control for the full effect not named in the record; Potency, µM (top dose mostly 92.2 µM), for the others: top-dose activity change, negative = less growth; 360,000 compounds, 0.21% hits; AID 651644, 2012; active = well fitted falling curve with a large enough effect; inconclusive = small, poorly fitted or top-dose-only effect; inactive = no such curve, though single readings can be large or run the other way;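 note: % is set by controls: 0 for no effect and ±100 for the full control effect; nearly all actives have a fitted effect of over 50% in size; the assay follows cell death caused by Vpr and the record does not say whether a fall means rescue or toxicity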
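Fission yeast RE007 carrying one integrated HIV-1 vpr copy, seeded at OD 0.01 in PMG+AL medium with 23 nL pinned compound. Grown 24 h at 30 degrees; viability read by BacTiter-Glo luminescence after 5 min.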
Starred values were filed as active, the others as inactive; ? = inconclusive; · = no result given; & = joins results of further samples; [ ] = remark or other dose. Unless noted, calls come from the whole dose curve; as a rule, active means well fitted rising curve with a large enough effect; inconclusive means small, poorly fitted or top-dose-only effect; inactive means no such curve, though single readings can be large or run the other way. Potency is the fitted concentration of half-maximal effect.

SMILES	2A StopGo	MARV entry inh	Cruzain noTriton	LASV entry inh	NS1 inh	SARS PLpro yeast	Cruzain inh Det	RE007 growth inh
O=C1[C@H]2[C@@H](/C=C/c3ccccc3)N3C(=O)CN(Cc4ccccn4)C(=O)[C@@]3(Cc3ccccc3)[C@H]2C(=O)N1c1ccccc1	-14.8%	·	·	·	-13.5%	-7.1%	·	-12.0%
C[C@@H]1CNCCN1S(=O)(=O)c1cccc2cnccc12	-12.4%	-1.4%&-1.4%&-1.4%&-1.4%	0.9%	·	·	·	-1.1%	·
Cc1ccc(N2C(=O)c3ccccc3NC2C(C)Cc2ccc3c(c2)OCO3)cc1 (stereo unspecified)	-7.9%	?	?	-26.1%	26.5%	-14.6%	-11.4%	-6.7%[3.69 µM]
CCOc1ccccc1N1CCN(C(=O)/C=C/c2cccc([N+](=O)[O-])c2)CC1	-31.4%	-0.5%	9.5%	-31.8%	-6.0%	-1.2%	-6.8%	-20.4%
CCOC(=O)C1(Cc2cccc(OC)c2)CCN(Cc2cccn2-c2nccs2)CC1	?	?	·	?	-2.5%	-1.2%	·	-10.4%
COc1cccc(C2NC(=S)NC3=C2CCc2ccccc23)c1 (stereo unspecified)	-2.4%	2.6%	?	7.3%	16.6%	26.9%	1.9%	9.1%
CCCC(=O)Nc1c(C(=O)OCC)[nH]c2ccccc12	?	1.6%	15.1%	·	-6.4%	2.9%	-3.5%	5.9%
CC(=O)Nc1cccc(NC(=O)CSc2cn(CC(=O)N(C(C)C)C(C)C)c3ccccc23)c1	0.5%	·	10.7%	?	·	·	-4.5%	·
COc1cccc(CN(C)C(=O)CNC(=O)c2ccc3c(c2)OCO3)c1OC	37.8%[activator]	12.3%	·	4.4%	-3.1%	4.9%	·	-6.1%
CCCCC(=O)NC(=S)Nc1cccc(NC(=O)c2ccco2)c1	4.2%	?	1.4%	16.8%	4.8%	6.1%	-22.8%	-1.0%
O=C(NC(=S)NCC1CCCO1)c1ccc(Cl)cc1Cl (stereo unspecified)	23.3%	?	-3.3%	-2.9%	20.5%	19.8%	-4.7%	-7.1%
CCN(CC)C(=S)SCC(=O)c1ccccc1	4.9%	?	-1.8%	?	-2.1%	3.3%	-2.9%	-8.5%
CCOc1ccccc1NC(=O)NC(C)c1ccncc1 (stereo unspecified)	-19.2%	24.8%	·	14.0%	0.2%	-1.5%	·	17.4%
CCOC(=O)c1ccc(-c2ccc(/C=N/NC(=O)Cc3nnc(N)s3)o2)cc1	9.3%	?	·	18.8%	-11.7%	-1.9%	·	-2.2%
O=C(CCc1ccccc1)N=C1SC2CS(=O)(=O)CC2N1c1ccccc1 (stereo unspecified)	-3.8%	·	·	·	4.8%	14.9%	·	10.8%
Cc1[nH]c2ccccc2c1C(=O)C(=O)NCC1CCCO1 (stereo unspecified)	4.5%	?	·	2.3%	·	-3.1%	·	4.9%
CCOc1ccccc1N=Nc1c(C)[nH]n(C(N)=S)c1=O	-22.3%	13.9%[46.1 µM]	·	11.5%[46.1 µM]	-3.8%	1.1%	·	8.5%
O=C(CSc1nnc(-c2ccccc2O)o1)N1CCc2ccccc2C1	3.3%	15.6%	12.2%	-4.7%	-1.1%	-7.8%	-5.8%	-15.8%
COc1ccccc1NC(=O)c1cc(Sc2nncn2C)nc2ccccc12	-9.2%	-5.4%	4.3%	-0.4%	0.1%	2.3%	-3.6%	-11.2%
Nc1n[nH]c(N)c1N=Nc1ccccc1	44.4%[activator]	?	·	16.6%	1.1%	-2.1%	·	10.5%
COc1ccc(OCC(O)CN2CCc3ccccc3C2)cc1 (stereo unspecified)	-18.3%	·	·	·	-12.1%	8.7%	·	16.9%
CCN1C(=O)c2ccccc2S(=O)(=O)c2ccc(C(=O)NCC(OC)OC)cc21	-4.5%	7.8%[46.1 µM]	·	12.1%[46.1 µM]	-1.0%	1.2%	·	-9.8%
CC(=O)OC1N=C(c2ccccc2)c2cc(Br)ccc2NC1=O (stereo unspecified)	0.1%	?	4.3%	-10.5%	-0.3%	-9.0%	0.2%	12.8%
Cc1cccc(NC(=O)CSc2nc3ccccc3o2)c1	-3.0%	?	-19.4%	2.9%	2.4%	-12.9%	-2.3%	-26.0%
Cc1ccc(NC(=O)c2ccco2)c(NC(=O)c2ccccc2)c1	2.8%	11.6%[46.1 µM]	·	-2.3%[46.1 µM]	-3.7%	-2.1%	·	13.9%

New compounds follow:
SMILES	2A StopGo	MARV entry inh	Cruzain noTriton	LASV entry inh	NS1 inh	SARS PLpro yeast	Cruzain inh Det	RE007 growth inh
Cc1ccc(-n2nc(C)c3c(C)c(CCC(=O)NCC4CCCO4)c(=O)n(C)c32)cc1 (stereo unspecified)	?	·	·	·	-5.2%	-0.6%	·	-8.0%
CSc1ncc2c(n1)-c1ccccc1N(Cc1ccccc1C)S2(=O)=O	-10.6%	·	-3.7%	2.8%[46.1 µM]	·	·	2.5%	·
CCSc1nnc(NC(=O)C(C(F)(F)F)C(F)(F)F)s1	-13.0%	-10.6%	-23.2%	-10.3%	-2.6%	-8.8%	-21.7%	1.0%
OCCN(Cc1ccccc1)c1ncnc2sccc12	?	3.1%[46.1 µM]	·	-20.2%	9.2%	-0.5%	·	15.1%
CCOC(=O)c1c(-c2ccc(-c3ccccc3)cc2)csc1NC(=O)c1cccc(N2C(=O)CCC2=O)c1	-21.7%	-0.4%	-11.3%	?	1.3%	3.2%	-3.0%	-15.9%
NC(=O)N1CCCC1C(=O)Nc1ccc(Cl)c(Cl)c1 (stereo unspecified)	-12.6%	-7.3%	-7.9%	-5.2%	?	1.4%	0.8%	0.6%
Cc1noc(C)c1CSc1nc2ccccc2nc1NS(=O)(=O)c1ccc(Cl)cc1	?	?	24.0%	-0.8%	-3.6%	3.9%	?	-8.2%
c1ccc2c(NCC3CCCO3)nc(-c3ccncc3)nc2c1 (stereo unspecified)	-12.9%	?	11.9%	-20.9%	-10.5%	-2.2%	1.6%	-10.0%
Cc1cc(F)ccc1Nc1nc2ccccc2n2nnnc12	10.1%	8.0%[46.1 µM]	4.5%	-2.1%[46.1 µM]	·	·	0.3%	·
CCO[C@@H]1OC(C(=O)N2CCN(Cc3ccc4c(c3)OCO4)CC2)=C[C@H](c2cn(C(C)=O)c3ccccc23)[C@H]1CCCO	?	·	·	·	-15.3%	-0.4%	·	-7.4%
O=C(Nc1ccccc1)c1ccc2c(O)c(S(=O)(=O)c3ccc(Cl)cc3)c(=O)[nH]c2c1	-15.3%	·	-20.4%	27.0%[46.1 µM]	·	·	-5.7%	·
O=[N+]([O-])c1ccc(C=NN2CCCCCC2)cc1	22.8%	?	·	?	·	·	·	-28.4%
O=C1CCCc2ccccc2N1Cc1cccc(F)c1	-8.0%	7.1%[46.1 µM]	·	-29.8%	-3.0%	2.1%	·	10.7%
Cc1n(-c2ccccc2)c2ccc(Cl)cc2[n+]1CCO	-12.3%	?	·	7.0%[46.1 µM]	0.8%	-0.3%	·	7.4%
O=C(Nc1cccc([N+](=O)[O-])c1)NN1CCCCCC1	-23.8%	?	·	-19.1%[46.1 µM]	·	·	·	1.4%
COc1ccc(Br)cc1C1Nc2ccccc2C(=O)N1NC(=O)c1ccncc1 (stereo unspecified)	-26.7%	?	-9.9%	-7.7%	-19.7%	3.4%	3.9%	22.6%
CN(c1ccccc1)c1nc(N)c([N+](=O)[O-])c(Nc2ccc(F)cc2)n1	-14.9%	·	·	·	0.1%	-0.2%	·	4.3%
COc1ccc(-c2nc3ccccc3c(C(=O)Nc3ccc(S(=O)(=O)Nc4cc(C)on4)cc3)c2C)cc1	-27.3%	-32.7%	3.3%	-26.5%	?	5.9%	-13.3%	-6.9%
CCCOc1ccc(N2C(=O)CC(N3CCCC(C(=O)N4CCCC4)C3)C2=O)cc1 (stereo unspecified)	2.0%	14.1%	13.8%	-11.5%	-136.6%	-37.6%	4.3%	17.8µM*
O=C(Nc1ccccc1C(=O)NC(Cc1ccc(O)cc1)C(=O)O)c1ccccc1 (stereo unspecified)	-17.6%	-0.2%[46.1 µM]	·	1.7%[46.1 µM]	4.5%	16.0%	·	1.6%
COc1ccc(NCc2nnc(SCC(=O)Nc3ccc(OC)cc3OC)o2)cc1	-12.3%	?	·	?	-1.3%	0.4%	·	9.0%
O=C(NCCO)c1cccc2c1-c1ccccc1C2=O	-11.4%	-0.8%	9.3%	1.9%	-1.4%	-2.6%	-3.8%	7.0%
COc1ccc(C)cc1NC(=O)C1CCCN(S(=O)(=O)c2ccc3c(c2)oc(=O)n3C)C1 (stereo unspecified)	-23.5%	-17.7%[46.1 µM]	21.1%	8.2%[46.1 µM]	·	·	-1.1%	·
O=C1CC(c2ccc(F)cc2)CC2=C1C=Nc1ccccc1N2 (stereo unspecified)	?	?	·	·	-42.1%	-1.0%	·	-2.3%
COCCN(C(=O)COC(=O)CCc1ccccc1)c1c(N)n(Cc2ccccc2)c(=O)[nH]c1=O	-0.8%	-10.1%	·	0.9%	·	6.1%	·	-2.4%
CCc1nc2ccccc2n1CC(=O)N(C(C)CC)C1CCS(=O)(=O)C1 (stereo unspecified)	-10.3%	8.8%	3.3%	13.8%	-7.9%	-8.6%	2.2%	-2.4%
O=C(CNc1ccc(Br)cc1)c1ccc(Br)s1	40.8%[activator]	-24.9%[46.1 µM]	·	?	-29.9%	-3.3%	·	-11.3%
Nc1c(C(=O)Nc2ccc(Cl)c(C(F)(F)F)c2)sc2nc3c(cc12)N1CCC3CC1	?	?	-11.8%	?	·	·	-17.1%	·
Cc1onc(-c2ccccc2Cl)c1C(=O)NCCn1c(C)cc2ccccc21	-16.4%	·	·	·	?	-8.1%	·	2.6%
COc1ccccc1[C@@H]1C(c2cccc(Cl)c2)=NN(c2ccccc2)[C@H]1C(=O)N1CCOC1=O	-7.9%	-43.4%	25.1µM*	14.8%	15.1%	-7.3%	0.7%&-20.1%	-4.6%
